High-throughput results from PubChem.
MARV entry inh – qHTS for inhibitors of binding or entry into cells for Marburg Virus | Marburg virus pseudotyped entry inhibition, cell reporter; control for the full effect not named in the record; about a third of the inactives were read at about 46 µM | AID 540276, 2011 | Potency, µM (top dose mostly 37.8 µM), inactives show at the highest dose activity change, negative = inhibition, most hits filed as inhibitors | 1.8% of 300,000 active; active = well fitted inhibition curve with a large enough effect; inconclusive = small, poorly fitted or top-dose-only effect, or effect the other way; inactive = flat fitted curve, though single readings scatter; tested in HEK293 cells; about a fifth of its hits are not listed in these tables; also: % is scaled to controls: 0 for no effect and ±100 for the full control effect; luciferase read-out
Cruzain Triton – qHTS Assay for Promiscuous and Specific Inhibitors of Cruzain (with detergent) | Cruzipain (Trypanosoma cruzi), P25779 | purified cruzain, Z-FR-AMC fluorescence, 0.01% Triton | Potency, µM, inactives show max response, negative = inhibition, hits mostly inhibitors | 0.43% of 200,000 active | AID 1478, 2009;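 also: plate controls were neutral wells for no effect and buffer without enzyme for full effect; nearly all actives have a fitted effect of over 40% in size; top concentration of the series not given in the record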
Target sequence (P25779 123-467 limits assumed): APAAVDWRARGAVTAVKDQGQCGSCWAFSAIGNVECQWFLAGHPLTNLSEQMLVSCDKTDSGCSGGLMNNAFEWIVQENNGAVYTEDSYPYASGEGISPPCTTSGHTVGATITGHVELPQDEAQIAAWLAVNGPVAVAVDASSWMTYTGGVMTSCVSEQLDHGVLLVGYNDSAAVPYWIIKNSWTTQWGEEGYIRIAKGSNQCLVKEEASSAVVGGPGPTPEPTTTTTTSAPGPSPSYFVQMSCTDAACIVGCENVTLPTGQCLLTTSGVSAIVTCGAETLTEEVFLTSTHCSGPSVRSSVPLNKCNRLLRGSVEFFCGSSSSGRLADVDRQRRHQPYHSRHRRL
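Cysteine protease activity tested under reducing, mildly acidic conditions (100 mM sodium acetate pH 5.5, 5 mM DTT) plus 0.01% Triton X-100. Cruzain 1.5 nM; substrate Z-FR-AMC 2 uM; 15 min compound preincubation at room temperature.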
RE007 growth inh – qHTS Assay for Inhibitors of the HIV-1 protein Vpr. Potency, µM (series often up to 92.2 µM), for inactives: top-dose activity change, negative = less growth. AID 651644, 2012. S. pombe RE007 Vpr strain, BacTiter-Glo ATP luminescence, 24 h; control for the full effect not named in the record. 0.21% of 360,000 active; active = well fitted falling curve with a large enough effect; inconclusive = small, poorly fitted or top-dose-only effect; inactive = no such curve, though single readings can be large or run the other way;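 also: % is scaled to controls: 0 for no effect and ±100 for the full control effect; nearly all actives have a fitted effect of over 50% in size; the assay follows cell death caused by Vpr and the record does not say whether a fall means rescue or toxicity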
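Fission yeast RE007 carrying one integrated HIV-1 vpr copy, seeded at OD 0.01 in PMG+AL medium with 23 nL pinned compound. Grown 24 h at 30 degrees; viability read by BacTiter-Glo luminescence after 5 min.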
StopGo reporter – High Throughput Screening for Foot and Mouth Disease Virus Antivirals. human cells with a luciferase reporter of 2A StopGo recoding; control for the full effect not named in the record. AID 1159524, 2015. 1.2% of 410,000 active. Potency, µM (doses to about 57.9 µM), for inactives: top-dose signal change, negative = less light; active = well fitted falling curve with a large enough effect; inconclusive = small, poorly fitted or top-dose-only effect; inactive = no such curve, though single readings can be large or run the other way; tested in HEK293T cells; also: % is scaled to controls: 0 for no effect and ±100 for the full control effect; nearly all actives have a fitted effect of over 45% in size; luciferase light after 4 h
Lassa entry inh – qHTS for Inhibitors of binding or entry into cells for Lassa Virus. Lassa virus pseudotype entry inhibition, cell reporter; control for the full effect not named in the record. Potency, µM (series often up to 37.9 µM), inactives show top-dose activity change, negative = inhibition, actives largely listed as inhibitors. 1.2% of 300,000 active. AID 540256, 2011; active means well fitted inhibition curve with a large enough effect; inconclusive means small, poorly fitted or top-dose-only effect, or effect the other way; inactive means flat fitted curve, though single readings scatter; tested in HEK293 cells; also: % is scaled to controls: 0 for no effect and ±100 for the full control effect; nearly all actives have a fitted effect of over 50% in size; luciferase read-out
Cruzain inh noDet – qHTS Assay for Promiscuous and Specific Inhibitors of Cruzain (without detergent). purified cruzain, Z-FR-AMC fluorescence, no detergent. AID 1476, 2009. Potency, µM, without a hit: max response, negative = inhibition, usual class: inhibitors. 2.3% of 200,000 active. Cruzipain (Trypanosoma cruzi), P25779;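 also: plate controls were enzyme without inhibitor for no effect and buffer without enzyme for full effect; nearly all actives have a fitted effect of over 40% in size; top concentration of the series not given in the record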
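Detergent-free condition (0.00005% Triton X-100) in acetate buffer pH 5.5 with DTT. 1.5 nM enzyme and compound were pre-mixed 15 min, then 2 uM Z-FR-AMC substrate added; reaction progress from fluorescence change between first and third reads (60 s).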
SARS PLP yeast – qHTS of Yeast-based Assay for SARS-CoV PLP. S. cerevisiae expressing SARS-CoV PLpro, growth rescue; control for the full effect not named in the record. Potency, µM (titrated, usually from 32.9 µM), inactives show at the highest dose activity, positive = growth rescue. 0.19% of 330,000 active. AID 485353, 2010; active means well fitted rising curve with a large enough effect; inconclusive means small, poorly fitted or top-dose-only effect; inactive means no such curve, though single readings can be large or run the other way; also: 0% is about no effect; nearly all actives have a fitted effect of over 55% in size; growth read by luminescence after 48 h
NS1 inh – qHTS Assay for Inhibitors of Influenza NS1 Protein Function; 0.4% of 270,000 active; AID 2326, 2010; S. cerevisiae slowed by influenza A NS1, growth recovery by OD600; Potency, µM (series often up to 46.1 µM), for inactives: at the highest dose activity, positive = more growth; active means well fitted rising curve with a large enough effect; inconclusive means small, poorly fitted or top-dose-only effect; inactive means no such curve, though single readings can be large or run the other way; also: nearly all actives have a fitted effect of over 50% in size
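Compounds were scored for reversing the slow growth caused by influenza A NS1 in S. cerevisiae, measured by optical density at 600 nm. Assay medium contained 2% galactose at pH 6.0; NS1-free yeast of the same strain were the positive control.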
An asterisk follows results filed as active; ? = inconclusive; . = not tested or not shown; & = joins results of further samples; [ ] = dose if it differs, or a comment. Unless noted, calls follow the shape of the dose curve; as a rule, active = well fitted curve in the direction sought with a large enough effect; inconclusive = small, poorly fitted or top-dose-only effect, or another doubt; inactive = no such curve, though single readings can be large; an effect the other way counts as inactive or inconclusive. Potency is read from the fitted curve at half-maximal effect. Compounds were not picked by outcome (roughly 4.7% active in at least one column).

SMILES | MARV entry inh | Cruzain Triton | RE007 growth inh | StopGo reporter | Lassa entry inh | Cruzain inh noDet | SARS PLP yeast | NS1 inh
CCn1nc(C(=O)OCC(=O)c2c[nH]c3ccccc23)c2ccccc2c1=O | -4% | -0.4% | 3% | 3% | -1% | ? | 2% | -23%
Cc1ccc2c(COC(=O)c3cnc(C)cn3)cc(=O)oc2c1 | 1% | -2.4% | . | . | . | 1% | 7% | -2%
O=C(NCCc1ccc(F)cc1)c1ccc(S(=O)(=O)N2CCCCC2)cc1 | 0% | . | 11% | -12% | ? | . | 0% | .
Nc1cc(=O)[nH]c(SCCNS(=O)(=O)c2ccccc2)n1 | 1% | 1.6% | 1% | 14% | -8% | -5% | 0% | 5%
CCC(=O)OCCNc1cc(SCCC(=O)OC)c2nonc2c1[N+](=O)[O-] | . | -21% | -11% | ? | 14% | -15% | -8% | -35%
CN(CCc1cnn(C)c1)Cc1nc(Cc2ccccc2)no1 | -3%[46.1 µM] | . | 4% | -14% | -5%[46.1 µM] | . | 0% | -1%
Oc1c(N=Nc2ccc(F)cc2)ccc2ccccc12 | ? | . | -24% | 14µM* | ? | . | 3% | 14%
CCCN(S(=O)(=O)c1ccc(OCC)cc1)S(=O)(=O)c1cccs1 | -58% | -4.5% | 7% | -21% | -31% | 4% | 4% | -8%
Cc1cccc(C)c1OCc1cc(=O)n2c3c(sc2n1)CCCC3 | -8%[46.1 µM] | -7.9% | . | ? | -24%[46.1 µM] | -13% | . | .
Cc1sc2ncnc(N=Nc3c(O)[nH]c4ccccc34)c2c1C | -3% | -4.8% | -3% | 2% | 0% | -9% | 8% | 20%
CCOC(=O)c1ccc(NC(=O)CC2SC3=NCCN3C2=O)cc1 (stereo unspecified) | ? | . | 2% | 21% | -2% | . | 0% | 5%
O=C(CSc1nc2ccccc2[nH]1)NCCN1CCCCC1 | 5% | 2.7% | -10% | -21% | 8% | -6% | 0% | 0%
CCc1csc(CCNC(=O)C2CCC(=O)N(CCOC)C2)n1 (stereo unspecified) | . | . | 4% | 0% | . | . | 5% | ?
CC1CCC(NC(=O)C(=O)Nc2ccc3c(c2)OCO3)CC1 (stereo unspecified) | ? | . | -9% | 10% | -20%[46.1 µM] | . | 3% | 16%
CC(=O)C1=C(O)C(=O)N(CCc2c[nH]c3ccccc23)C1c1ccc(O)cc1 (stereo unspecified) | 5% | -8.7% | 11% | 14% | 12% | 6% | -6% | -1%
CCOc1ccccc1OCCCC(=O)Nc1cc(S(=O)(=O)N2CCOCC2)ccc1OC | -23%[46.1 µM] | . | 13% | -3% | -13%[46.1 µM] | . | 4% | .
O=C(CCC(=O)N1CCN(c2ccccn2)CC1)c1ccc(Cl)s1 | 18% | . | -14% | 21% | 18% | . | -20% | .
Cc1ccccc1-c1noc(CNC(=O)c2ccco2)n1 | 8%[46.1 µM] | . | 7% | 5% | 0% | . | -6% | -2%
Cc1ccccc1Nc1nc(N)c2ccccc2n1 | . | . | ? | -42% | . | . | -3% | -5%
COc1ccc(S(=O)(=O)N2CCSC2)cc1C | ? | 0.8% | 1% | -9% | -9% | -6% | -23% | -3%
O=C(NCCNc1ccc([N+](=O)[O-])cc1C(F)(F)F)c1ccc(F)cc1 | ? | -13% | -9% | ? | ? | -2% | 1% | 20%
CCOc1ccc(C(=O)Nc2ccccc2OC(F)F)cc1 | 20%[46.1 µM] | . | 1% | 31%[activator] | -4% | . | -1% | .
COc1ccccc1OCCC(=O)OCC(=O)NC(C)c1ccccc1 (stereo unspecified) | 13% | -1.9% | 1% | 0% | 0% | -2% | 9% | 0%
O=C(Nc1cc(Br)ccc1O)c1cc(-c2ccccc2)on1 | . | . | 0% | 46%[activator] | . | . | 3% | 5%
CCC(C)NCCCOc1c(C)cc(C)cc1Br (stereo unspecified) | ? | 0.2% | -17% | 0% | ? | 0% | -4% | -6%

(listing goes on)
SMILES | MARV entry inh | Cruzain Triton | RE007 growth inh | StopGo reporter | Lassa entry inh | Cruzain inh noDet | SARS PLP yeast | NS1 inh
COc1ccc(NC(=O)CN2CCN(CC(=O)Nc3ccc(F)cc3)CC2)c(OC)c1 | . | . | 12% | -22% | . | . | -1% | -4%
Cc1ccc(C)c(N(CC(=O)NC2CCCCC2)C(=O)c2csnn2)c1 | ? | . | 3% | 23% | -4%[46.1 µM] | . | -1% | 7%
N/C(Cc1ccc([N+](=O)[O-])cc1)=N\OC(=O)Cc1ccc(Cl)cc1 | ? | -7.6% | -20% | 0% | 2% | 1% | -101% | -28%
CC(=O)N1CCN(C(=O)COc2ccc(Br)cc2)CC1 | 17% | 31%[activator] | 0% | 9% | 6% | -4% | 3% | 0%
CS(=O)(=O)NCCSc1nnnn1-c1ccccc1 | ? | 3.2% | -8% | 4% | 4% | 3% | -1% | -2%[9.22 µM]
CC(C)CC(NC(=O)COc1ccccc1)C(=O)O (stereo unspecified) | -1% | 0.0% | 6% | -7% | 18% | 0% | -6% | 5%
CCOc1cc(/C=N/NC(=O)c2ccncc2)ccc1OC(=O)c1ccc([N+](=O)[O-])cc1 | -2% | 1.1% | 6% | 0% | 16% | -4% | 4% | 9%
COC(=O)C1=CN(c2ccc(OC)cc2)C=C(C(=O)OC)C1c1ccc(C)c([N+](=O)[O-])c1 | ? | -7.7% | . | ? | ? | ? | 12% | ?
COCCC(=O)N1CCC(Oc2ccc(C(=O)NC3Cc4ccccc4C3)cc2)CC1 | ? | . | 12% | -25% | 0%[46.1 µM] | . | 0% | 4%
Cc1cc2c(cc1S(=O)(=O)N1CCc3ccccc31)NC(=O)CO2 | ? | . | -9% | ? | ? | . | -1% | .
CCOc1ccc(-c2nn(-c3ccccc3)cc2/C=C(\C#N)S(=O)(=O)c2ccccc2)cc1C | -12% | -1.7% | -9% | -6% | -1% | ? | 0% | -12%
CCCCNC(=O)NNC(=O)COc1cc(C)cc(C)c1 | ? | 1.1% | -13% | 14% | 8% | 8% | 8% | 3%
CSc1nc(-c2ccccc2Cl)nc2c1Cc1c(CO)cnc(C)c1O2 | . | -0.5% | . | -22% | -15%[46.1 µM] | -8% | . | .
Cc1ccccc1C(=O)N1CCC(C(=O)NC2CCCC2)CC1 | 5%[46.1 µM] | . | -3% | -3% | 6%[46.1 µM] | . | 1% | 11%
CNC(=O)c1c(C)[nH]c(=S)c(C#N)c1-c1ccco1 | . | . | 20% | -4% | . | . | 0% | 14%
O=C(O)COc1cccc(NC(=O)C2CCCO2)c1 (stereo unspecified) | 20% | 2.5% | 7% | -5% | 0% | 7% | 1% | -1%
CCCCc1nc2ccccc2c(=O)n1-c1ccccc1O | -18% | 2.6% | -2% | ? | 10% | 5% | -3% | 11%
CN1CCN(NC(=O)COc2cccc(C(F)(F)F)c2)CC1 | -8% | 0.1% | 5% | -18% | -1% | -6% | -11% | 7%
Cc1nn(C2CCS(=O)(=O)C2)c2nc(C3CC3)cc(C(=O)Nc3ccc(C(N)=O)cc3)c12 (stereo unspecified) | 1% | . | 7% | ? | -4% | . | -3% | .
CNC(=S)Nc1ccc([N+](=O)[O-])cc1C | 9%[46.1 µM] | . | 25% | -6% | 10% | . | 0% | 6%
CCOC(=O)C1=C(c2ccccc2)NC(SCC(=O)NC2CCCCC2)=C(C#N)C1c1ccco1 (stereo unspecified) | ? | -6.2% | 9% | . | ? | -3% | 0% | 14%
COc1ccc(CNC(=O)CN(C)S(=O)(=O)c2ccccc2)cc1 | 1%[46.1 µM] | . | -6% | -14% | 7%[46.1 µM] | . | 1% | .
COc1cccc(NC(=O)[C@@H]2CCC(=O)N2C2OC(=O)c3ccccc32)c1 (stereo partly specified) | . | . | -4% | -7% | . | . | 6% | 4%
CC1CCCCN1Cc1c(O)ccc2c(=O)c(-c3cccc(Cl)c3)c(C(F)(F)F)oc12 (stereo unspecified) | ? | -1.4% | . | ? | 1%[46.1 µM] | -1% | . | .
CC(C)CCn1c(N)c(S(=O)(=O)c2cccs2)c2nc3ccccc3nc21 | 15µM* | 3.2% | -6% | 21% | 39%[14.3 µM] | ? | -5% | -45%

More compounds.
SMILES | MARV entry inh | Cruzain Triton | RE007 growth inh | StopGo reporter | Lassa entry inh | Cruzain inh noDet | SARS PLP yeast | NS1 inh
CCCN(CC(=O)Nc1ccccc1C)C(=O)c1ccc(N2CCCCC2)c([N+](=O)[O-])c1 | -27% | . | 12% | 11% | ? | . | -4% | .
COc1ccc(C)cc1S(=O)(=O)N1CCN(c2cccc(C(F)(F)F)c2)CC1 | ? | -9.4% | 3% | -17% | ? | 19% | -2% | 0%
O=c1c2oc3ccccc3c2n(Cc2ccccc2F)c(=O)n1Cc1ccc2c(c1)OCO2 | . | 0.6% | . | -14% | 23%[46.1 µM] | -6% | . | .
O=C(c1ccccc1)c1c[nH]c(C(=O)NCc2cccnc2)c1 | 2%[46.1 µM] | 5.4% | 5% | -7% | 9% | -1% | 5% | 11%
CCCCN(Cc1ccccc1)C(=O)c1cnc2n(c1=O)CCS2 | 2% | 3.3% | -6% | 15% | -2% | -9% | 2% | -6%
O=C(c1sc2ccccc2c1Cl)N1CCC2(CC1)OCCO2 | 21% | -5.3% | 0% | 33%[activator] | -7% | 5% | -10% | -3%
S=C1NCN(Cc2cccnc2)CN1 | -26% | . | 0% | -15% | 10% | . | 1% | 2%
COc1ccc(S(=O)(=O)N2CCC(Oc3cccc(C(F)(F)F)c3)CC2)cc1OC | ? | -0.4% | . | -3% | 20%[46.1 µM] | 1% | . | .
Cc1ccc(C(=O)Nc2ccc(C(=O)O)cc2)cc1S(=O)(=O)NCc1ccccc1 | ? | . | 2% | 3% | ? | . | -2% | .
O=C(N/N=C/c1ccnc2ccccc12)c1ccccc1O | 3% | . | -12% | 12% | ? | . | -8% | -10%
O=C(CCCC(=O)N1CCc2ccccc21)N1CCc2ccccc21 | 19%&0% | 4.0% | -5% | 9% | -1% | -1% | -2% | 2%
